HPGD inh = HPGD (human) dehydrogenase inhibition. P15428. purified HPGD, NADH fluorescence kinetic, PGE2 substrate. Potency, µM, for inactives: at the top dose activity change, negative = inhibition, hits mostly inhibitors. 150,000 tested, 4.3% active. AID 894; active = well fitted inhibition curve with a large enough effect (not every such curve was filed as active); inconclusive = small, poorly fitted or top-dose-only effect, or another doubt; inactive = no such curve, though single readings can be large or run the other way;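 note: top concentration of the series not given in the record; plate controls included wells without enzyme; inactives centre near -10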
Target sequence (P15428 whole entry, looked up): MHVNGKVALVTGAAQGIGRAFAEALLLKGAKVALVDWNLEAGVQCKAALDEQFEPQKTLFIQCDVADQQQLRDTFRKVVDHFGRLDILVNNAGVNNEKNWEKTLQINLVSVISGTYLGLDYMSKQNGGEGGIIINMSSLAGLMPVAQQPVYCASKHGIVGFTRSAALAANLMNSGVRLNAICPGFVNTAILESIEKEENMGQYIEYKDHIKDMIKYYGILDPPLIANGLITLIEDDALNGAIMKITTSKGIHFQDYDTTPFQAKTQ
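NADH formation kinetics: reaction with 30 uM PGE2 and 1 mM NAD+ (final), 20 nM enzyme, Tris-HCl pH 8 with Tween 20, after 15 min compound preincubation at room temperature. Fluorescence change, last versus first of five reads.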
Active calls of the source: *; ? = inconclusive; & = joins results of further samples. % is set by controls: 0 for no effect and ±100 for the full control effect; potency is the fitted concentration of half-maximal effect.

SMILES | HPGD inh
C1=C2C[N+]3(CCCC3)CC2Cc2ccc3ccccc3c21 (stereo not drawn) | -7%
CC(C)NC(=O)c1ccccc1NC(=O)Cc1ccc(Cl)cc1 | -4%
N#Cc1c(N)nc2c(c1-c1ccc3c(c1)OCO3)CCCCCC2 | -20%
O=C(c1csc2ccccc12)n1cccn1 | -10%
O=C1NCCCC1C(=O)N/N=C/c1cccc(O)c1 (stereo not drawn) | -7%
Cn1nc(-c2ccc(Cl)cc2)c2cc(C(=O)NCc3ccco3)sc21 | ?
CCNc1ccc(C(=O)OCC(=O)NCc2ccccc2Cl)cc1[N+](=O)[O-] | -16%
Cc1cc(F)c(F)c(C(=O)NC2CC2)c1Cl | -26%
C/C(Cl)=C\Cn1c(Nc2ccc(C)cc2)nc2c1c(=O)n(C)c(=O)n2C | -7%
COC(=O)CSc1nnc(CNC(=O)c2ccc(S(=O)(=O)N3CCCCC3)cc2)n1C | -4%
COc1ccc(Nc2ncccc2C(=O)NCc2ccccc2)cc1 | -9%
CC(C)Cc1nnc(NS(=O)(=O)c2ccc(Cl)cc2)s1 | -6%
O=S1(=O)CC(O)C(N2CCCCC2)C1 (stereo not drawn) | -2%
Cc1cc(C)n2nc(/C(C#N)=C/c3ccccc3)c(C#N)c2n1 | ?
COc1cccc2c1NC(C(=O)O)C1CC=CC21 (stereo not drawn) | ?
c1ccc(Cn2nnc(-c3ccccc3)n2)cc1 | -19%
CC(=O)c1c(O)cc2n(c1=O)-c1ccc(Cl)cc1C2(C)C | -9%
Cc1ccc(-n2ncc3c(=O)n(CC(=O)NC4CCCCC4)cnc32)cc1C | -26%
CCCNc1nc(N)nc(-c2cc(Cl)ccc2OC)n1 | -21%
CCOC(=O)c1ccccc1NC(=O)/C=C/C(=O)O | -19%
COc1ccc2c(c1OC)C(=O)N1c3ccccc3COC21 (stereo not drawn) | -6%
CCOc1ccc(CCNc2ccc3nnc(-c4ccccc4)n3n2)cc1OCC | -8%
Cc1cc2cc(C(c3nnnn3Cc3ccccc3)N3CCc4ccccc43)c(=O)[nH]c2cc1C (stereo not drawn) | -16%
C=CCN1C(=O)/C(=C\c2ccc(C)cc2)N=C1SCC(=O)NCCC | 6%
O=C(COC(=O)c1c2c(nc3ccccc13)CCCC2)c1ccc(Br)s1 | -7%

As a working copy, 2 of the compounds above.
SMILES | HPGD inh
C=CCN1C(=O)/C(=C\c2ccc(C)cc2)N=C1SCC(=O)NCCC | 6%
O=C(COC(=O)c1c2c(nc3ccccc13)CCCC2)c1ccc(Br)s1 | -7%

(continued)
SMILES | HPGD inh
O=C(NCCc1ccc2c(c1)OCCO2)c1cccc(F)c1 | -5%
COc1ccccc1Nc1nc(-c2cccc([N+](=O)[O-])c2)nc2ccccc12 | -18%
COc1ccc(CNc2nc3nc(C)c(Cl)c(=O)n3[nH]2)cc1OC | -12%
CC(C)Cc1nccs1 | -11%
CCOC(=O)c1cc2c(C)n(-c3ccc(OCC)cc3)c(C)c2cc(C(=O)OCC)c1=O | -4%
COc1ccc(N2CCN(CC(=O)Nc3ccc(SC(F)F)cc3)CC2)cc1 | -5%
Cc1noc(NS(=O)(=O)c2ccc(NC(=O)C34CCC(CC3)C4)cc2)c1C | -13%
C=CCSC1=C(C#N)C(c2ccc(C(C)C)cc2)CC(=O)N1 (stereo not drawn) | -14%
Cc1cc(-c2ccc(/C=N/n3cnnc3)o2)c([N+](=O)[O-])cc1C | 10µM*
Oc1cc(CN2COc3ccccc32)c(O)cc1CNC1CCCCC1 | 1.6µM*
Cc1c(C(=O)NCCC2=CCCCC2)oc2ccc(S(=O)(=O)N3CCOCC3)cc12 | -21%
CN1/C(=c2/s/c(=C3/C(=O)N(c4ccccc4)NC3=Nc3ccccc3)n(C)c2=O)C(C)(C)c2ccccc21 | -23%
COc1ccccc1C(c1nnnn1Cc1ccccc1)N1CCC(C(N)=O)CC1 (stereo not drawn) | -4%
COCCCN1C(=O)C(=O)/C(=C(/O)c2ccccc2)C1c1ccc2c(c1)OCO2 (stereo not drawn) | -11%
Cc1cccc(Nc2nc(-c3ccccc3)c(C(=O)Nc3cccnc3)s2)c1 | ?
Cc1nnc(SCC(=O)N2CCCCC2)s1 | -25%
CCOc1cccc(/C(O)=C2/C(=O)C(=O)N(CCOC)C2c2ccc(C)o2)c1 (stereo not drawn) | -6%
CCCCOc1ccc(-c2nnc(N)s2)cc1 | -26%
CCCCNC(=O)N(O)C1N(CCCC)C(=O)N(CC(=O)OC)C1(C)C (stereo not drawn) | -10%
CCN1CCN(CCCNC(=O)C2CCCN(c3nnc(-n4cccc4)s3)C2)CC1 (stereo not drawn) | -4%
CCc1ccc(NC(=O)c2ccc3c(c2)C(=O)N(CCOC)C3Nc2ccc(CC)cc2)cc1 (stereo not drawn) | -13%
COCCNc1cc(NCCOC)c([N+](=O)[O-])cc1[N+](=O)[O-] | -9%
CN(CCNC(=O)Cn1c(=O)sc2ccccc21)Cc1ccccc1 | -5%
OC[C@@H]1[C@@H](c2ccc(F)cc2)C(c2cccc(Cl)c2)=NN1c1ccccc1 | ?
CCOc1ccc(N(Cc2cc3ccc(C)cc3[nH]c2=O)S(C)(=O)=O)cc1 | -7%

Next section:
SMILES | HPGD inh
Fc1ccc(-c2noc(C3CCN(Cc4cccnc4)CC3)n2)cc1 | -9%
O=C(CS(=O)c1cccc(C(F)(F)F)c1)Nc1ccccc1Cl (stereo not drawn) | -5%
Cc1nc2ccccc2cc1C(=O)N/N=C/c1ccco1 | -23%
O=C(Nc1ccc(Cl)cc1)c1ccc(-n2cncn2)c([N+](=O)[O-])c1 | -9%
O=C1C[C@@H]2CCN3C(=O)CCC[C@@H]([C@H]23)[C@H]1Cc1ccccc1 | -9%
O=C(N/N=C\c1cccc(Cl)c1)c1ccc(Cn2cccn2)o1 | -10%
O=C(CCn1c(=S)[nH]c2ccccc2c1=O)N1CCOCC1 | -14%
O=C1CN2C(=N1)N(Cc1ccccc1)c1ccccc12 | -3%
O=C(C[n+]1cnn(CC(=O)c2ccc(Cl)cc2Cl)c1)c1ccc([N+](=O)[O-])cc1 | 0%
CCOC(=O)c1sc(NC(=S)NC(=O)c2cccc(Cl)c2)c(C(=O)OCC)c1C | -12%
Cc1c(C2Nc3ccccc3NC3=C2C(=O)CC(C)(C)C3)cnn1C (stereo not drawn) | -24%
C=CCN1CCN(C(c2cc(OC)ccc2OC)c2nnnn2CC2CCCO2)CC1 (stereo not drawn) | -12%
O=C(N/N=C/C1CC=CCC1)c1ccc(O)cc1O (stereo not drawn) | -9%
Cc1ccc2[nH]c3c(NCCCN4CCCC4=O)ncnc3c2c1 | ?
Cc1cc(NC(=O)CSc2nc(-c3ccco3)cc(C(F)(F)F)n2)n(-c2ccccc2)n1 | -8%
CCOC(=O)/C=C1\Nc2ccccc2SC1=O | -22%
CC1(C)OC(=O)C(=CNc2ncccn2)C(=O)O1 | -7%
COn1c(SCc2ccccc2)nc2ccccc2c1=O | ?
CC(=O)N1CCc2cc(C(=O)CN3CCN(c4ccccc4F)CC3)ccc21 | ?
COc1cc(/C=N\NC(=O)c2ccc(C)nc2)ccc1OC(=O)c1ccco1 | -15%
COc1c2c(cc3c1C(CC(=O)c1c(O)c(OC)c4occc4c1OC)[N+](C)(C)CC3)OCO2 (stereo not drawn) | -7%
CCOc1cc(C2NC(=O)NC(C)=C2C(=O)OC(C)CC)cc(Br)c1O (stereo not drawn) | -5%
Cc1ccc(S(=O)(=O)CCC(=O)Nc2ccc3c(c2)OCO3)cc1 | -15%
Cc1c(/C(O)=C2/C(=O)C(=O)N(Cc3cccnc3)C2c2cccs2)cnn1-c1ccccc1 (stereo not drawn) | 20µM*
CN(C)Cc1cc(C(C)(C)C)ccc1-c1ccc(C(C)(C)C)cc1CN(C)C | -2%

Two of the compounds above, with values ahead of the structure.
HPGD inh,smiles
-14%,O=C(CCn1c(=S)[nH]c2ccccc2c1=O)N1CCOCC1
-3%,O=C1CN2C(=N1)N(Cc1ccccc1)c1ccccc12

Following part:
canonical_smiles	HPGD inh
O=C(O)CCNc1cc2ccccc2cc1C(=O)O	?
CCOC(=O)Cn1c2ccccc2c2nc3ccccc3nc21	?
O=C(Nc1cc(C(F)(F)F)ccc1N1CCOCC1)c1cncc(Br)c1	-10%
Cc1ccc(C)c(N2CCN(C(=O)c3csc(C)c3C)CC2)c1	-14%
COC(=O)c1ccccc1NC(=O)CSc1nnc(COc2cccc(OC)c2)n1C	-8%
COc1cc2ccccc2c2c1CCCC2=O	-15%
COc1cc(C(=O)N/N=C/c2ccsc2C)cc(OC)c1OC	-16%
CC(O)CO (stereo not drawn)	-7%&-12%
O=C(NN1CCCCC1)c1cccc(COc2ccc(Cl)cc2)c1	-16%
Nc1nc(Nc2ccccc2)nc(NCc2ccco2)c1[N+](=O)[O-]	-5%
CCCCNC(=O)Cn1cnc2c(cnn2-c2ccc(C)c(C)c2)c1=O	-25%
c1ccc(C2Nc3ccccc3Oc3ccccc32)cc1 (stereo not drawn)	-17%

Some of these compounds in order of the HPGD inh value, smallest number first.
canonical_smiles	HPGD inh
CCCCNC(=O)Cn1cnc2c(cnn2-c2ccc(C)c(C)c2)c1=O	-25%
c1ccc(C2Nc3ccccc3Oc3ccccc32)cc1 (stereo not drawn)	-17%
O=C(NN1CCCCC1)c1cccc(COc2ccc(Cl)cc2)c1	-16%
O=C(Nc1cc(C(F)(F)F)ccc1N1CCOCC1)c1cncc(Br)c1	-10%
COC(=O)c1ccccc1NC(=O)CSc1nnc(COc2cccc(OC)c2)n1C	-8%

Pulled one by one from above:
canonical_smiles	HPGD inh
Cc1ccc(C)c(N2CCN(C(=O)c3csc(C)c3C)CC2)c1	-14%
Nc1nc(Nc2ccccc2)nc(NCc2ccco2)c1[N+](=O)[O-]	-5%
CCCCNC(=O)Cn1cnc2c(cnn2-c2ccc(C)c(C)c2)c1=O	-25%
O=C(O)CCNc1cc2ccccc2cc1C(=O)O	?
COc1cc2ccccc2c2c1CCCC2=O	-15%

The results go on.
canonical_smiles	HPGD inh
CCc1cc2c(=O)[nH]c(N3CCCC3)nc2s1	-9%
O=C(Cn1ncc2c(=O)oc3ccccc3c21)N1CCCc2ccccc21	-9%
CSC(N)=NCCC[C@H](N)C(=O)O	-5%
CC(C)C(C(=O)Nc1ccc2c(c1)OCCO2)N1C(=O)c2ccccc2C1=O (stereo not drawn)	-7%
COc1cc(-c2cc(N)n(S(=O)(=O)c3ccccc3)n2)cc(OC)c1OC	-14%
Cc1cccc(C(O)(C(=O)NNc2ccc3ccccc3n2)c2cccc(C)c2)c1	-18%
CCOc1cc2[nH]c(=O)n(CCCN3CCCC3=O)c(=O)c2cc1OCC	-17%
CC(=O)[C@@H]1CC[C@@H]2[C@@H]3CCC4=CC(=O)CC[C@@]4(C)[C@H]3CC[C@]21C	0%
CCC(=O)N=c1n(C)c2ccccc2n1CCOc1ccccc1	-7%
CCN(CC)CCC(=O)NC(C)(C)Cc1ccc(O)cc1	3%
CCOC(=O)CN1CC23C=CC(O2)C(C(=O)NC2CCCCCC2)C3C1=O (stereo not drawn)	-5%
O=C(NC(Cc1c[nH]c2ccccc12)C(=O)NCc1ccc(F)cc1)OCc1ccccc1 (stereo not drawn)	-4%

Additional records follow:
canonical_smiles	HPGD inh
CC(=O)c1c(C(C)=O)c(C)n(NC(=O)c2ccccc2O)c1C	-21%
Cc1nc(Cc2nnc(SCc3nc(N)nc(Nc4ccccc4C)n3)o2)cs1	-8%
Cc1cc2c(cc1C)NC1=C(N2)O[C@H](c2c[nH]c3ccc(COc4ccccc4)cc23)C1=O	-15%
Cc1nc2c(C(=O)NCCC3=CCCCC3)c[nH]n2c(=O)c1Cl	-29%
Cc1ccc(C(c2nnnn2CCC(C)C)N2CCN(C)CC2)cc1 (stereo not drawn)	-4%
C=CCNc1nc(NC(C)(C)CO)nc(OCC)n1	-3%
Cc1nnc2n(-c3ccccc3)c(=O)c3c4c(sc3n12)CC(C)CC4 (stereo not drawn)	-6%
COC(=O)c1c(C)oc2ccc(N(C(=O)c3ccncc3)S(=O)(=O)c3ccccc3)cc12	-10%
CC(C)(c1cc(Br)c(O)c(Br)c1)c1cc(Br)c(O)c(Br)c1	?
COc1ccc(CNC(=O)COC(=O)C2=COCCO2)cc1	-4%
C=CCn1c(COc2ccc(CC)cc2)nnc1SCC(=O)NC1CCS(=O)(=O)C1 (stereo not drawn)	-9%
Cc1cc(Oc2ccc(Br)cc2)nc(SCC(=O)c2ccccc2)n1	?

The list goes on.
canonical_smiles	HPGD inh
COC1C(O)C(CO)OC1n1c(Br)nc2c(=O)[nH]c(N)nc21 (stereo not drawn)	-6%
CC(C)N(C1=N/C(=C\c2ccco2)C(=O)N1c1ccccc1)C(C)C	-14%
CCn1c(CNC(=O)c2ccco2)nnc1SCC(=O)Nc1ccc(Br)cc1F	-3%
CCOC(=O)N1CCN(C(=O)c2ccc3c(=O)n(CC4CCCO4)c(=S)[nH]c3c2)CC1 (stereo not drawn)	-5%
COc1ccc(C2=NN(c3nc(-c4ccccc4)c(CC(=O)O)s3)C(c3ccco3)C2)cc1 (stereo not drawn)	?
COc1ccc(C(=O)c2ccc(CC#N)s2)cc1	?
O=C(CN1CCCCC1)Nc1cccc2c1OCO2	?
Cc1cccn2c(=O)c3cc(C(=O)NCC4CCCO4)c(=N)n(CCN4CCOCC4)c3nc12 (stereo not drawn)	?
Cc1ccc(-c2noc(CCC(=O)NCc3ccc4c(c3)OCO4)n2)cc1	-4%
COC(=O)c1cccc(NC(=O)CSc2nc(C)cc(=O)[nH]2)c1	20µM*
CC(C)c1ccc2c(c1)[C@H]1OCC[C@H]1[C@@H](c1cccs1)N2	7.9µM*
CCCC1C(C#N)=C(N)Oc2cc(C)n(C)c(=O)c21 (stereo not drawn)	?
Cc1ccccc1N1C(=O)c2ccccc2NC1c1ccncc1 (stereo not drawn)	?

Assay outcomes (PubChem BioAssay)

This is a subset (hit frequency here may not be typical).
